CSC inhib: blocks cancer stem cells; cancer stem cell-like cells viability, luminescence; inhibition, % at 7.5 µM; 300,000 compounds, 1.1% hits;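 active = mean at 75% or more and at least half the replicates too; inconclusive = mean and replicates disagree; tested in HMLE shEcad cells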;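 also: 0% = median of negative and 100% = median of positive control wells; the first replicate is given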
HIV Env fusion: HIV envelope-mediated fusion inhibition; inhibition, % at 12.3 µM; 360,000 compounds, 1.1% hits; HeLa-JRFL Env/CEM21 cell fusion, luciferase; AID 651610;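 active = mean replicate inhibition score of at least 50 and every replicate individually at or above 50; inconclusive = only one of the two criteria met; inactive = mean below 50 and not all replicates reaching 50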;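 also: 0% = plate neutral controls and 100% = maraviroc near 300 nM; one replicate is shown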
PABP polyA inh: blocks human PABP binding to poly(A) RNA | P11940 | fluorescence polarization | inhibition, % at 35 µM | 290,000 compounds, 1% hits;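 active = 50% or more with normal probe brightness, or confirmed in later tests; inconclusive = above 50% with abnormal brightness, or retests that disagree; inactive = below 50% or failed in later tests; about a fifth of its hits are not listed in these tables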;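 also: calls also rest on retests at 20 µM and on dose response follow-up; controls were probe without protein and protein plus probe with vehicle; some compounds called inactive have numbers as strong as hits; many hits fall short of the cut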
Rce1 inh: inhibitors of yeast Ras-converting enzyme; calls only; AID 2563; 290,000 compounds, 0.27% hits; yeast membranes, quenched prenylated peptide cleavage fluorescence; Q03530;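 active = fall in fluorescence gain of 50% or more versus controls, with final raw signal at or below 3038400; inconclusive = same 50% fall but final raw signal above 3038400; inactive = fall in fluorescence gain under 50%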;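 also: plate controls were neutral control wells for no effect and wells lacking membranes for full effect; tested at 10 µM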
Target sequence (Q03530 whole entry, looked up): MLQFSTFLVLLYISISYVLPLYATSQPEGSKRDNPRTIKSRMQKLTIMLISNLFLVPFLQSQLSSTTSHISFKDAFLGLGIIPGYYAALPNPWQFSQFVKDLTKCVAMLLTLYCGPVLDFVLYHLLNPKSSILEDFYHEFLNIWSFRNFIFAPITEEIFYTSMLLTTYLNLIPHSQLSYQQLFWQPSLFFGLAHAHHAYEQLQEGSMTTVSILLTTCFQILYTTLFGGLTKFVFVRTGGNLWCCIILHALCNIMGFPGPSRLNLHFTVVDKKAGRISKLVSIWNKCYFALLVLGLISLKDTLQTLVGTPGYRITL
MT1-MMP act inh: MT1-MMP (human) activation inhibition; P50281; HT1080 RFP-PRO-GFP cells, GFP/RFP ratio fluorescence, overnight; percent of plate control window, DMSO zero; GFP/RFP ratio change, % at 20 µM; 360,000 compounds, 0.061% hits; AID 651647;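 active = GFP/RFP ratio change of at least 30% with cell ATP level not reduced by more than half and red fluorescence within 50% of control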; also: strong numbers were not always called active
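Test system: HT1080 cells expressing an RFP-PRO-GFP fluorescent reporter construct / Compound dosing: single-point 20 µM compound, 1% DMSO / Schedule: cells overnight before dosing, compound overnight, 37 °C, 5% CO2 / Evaluation: GFP/RFP fluorescence ratio / Control set: DMSO and RFP-L50D-GFP cell wells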
eIF4H FP inh: inhibitors of RNA binding by human eIF4H; Q15056; eIF4H fluorescence polarization binding assay; inhibition, % at 35 µM; 290,000 compounds, 0.94% hits; AID 2012;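 active = 50% or more with normal probe brightness, or confirmed in later tests; inconclusive = above 50% with abnormal brightness, or retests that disagree; inactive = below 50% or failed in later tests; about a fifth of its hits are not listed in these tables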;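 also: calls also rest on retests at 20 µM and on dose response follow-up; 0% = protein and probe with vehicle and 100% = probe without protein; strong numbers were not always called active; many hits fall short of the cut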
UUG fidelity: alters start codon recognition fidelity in yeast; activity score, % at 18.7 µM; 350,000 compounds, 0.13% hits; S. cerevisiae UUG-firefly luciferase reporter, luminescence/redox ratio;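 active = replicate mean at a twofold rise or more, about +100% in these data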;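 also: firefly luciferase made from a UUG start codon reports start codon fidelity; reporter light over untreated wells divided by growth signal over untreated wells; some hits fall short of that in this replicate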
eIF4H FP inh retest: recorded beside eIF4H FP inh, whose call it bears; inhibition, %; compound at 20 µM; confirmation average;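 mean of two retest wells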
PABP polyA inh retest: recorded beside PABP polyA inh, whose call it bears; inhibition, %; compound at 20 µM; confirmation repeats;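 mean of two retest wells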
MT1-MMP act inh RFP: further read-out of MT1-MMP act inh, marked with its call; RFP signal change, %; measured here: RFP expression control read;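 0 = vehicle wells; hits needed this value within 50% of zero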
Active calls of the source: *; i = inactive; ? = inconclusive; · = not tested or not shown. This is a subset, so the mix of outcomes need not match the whole.

Start of the listing, in advance:
SMILES	CSC inhib	HIV Env fusion	PABP polyA inh	Rce1 inh	MT1-MMP act inh	MT1-MMP act inh RFP	eIF4H FP inh	UUG fidelity	others
N#CCc1ccc(Oc2ncccn2)cc1	-12.8	-6.0	-1.7	i	-3.9	-0.1	-14.5	-3.6
O=S(=O)(NC1CCCCC1NCc1ccco1)c1ccc(Cl)cc1 (stereo not drawn)	-0.7	·	-7.4	i	-2.1	0.6	4.1	-9.3
Cc1ccc(-c2csc(N3CCN(c4ccc5nc(-c6ccncc6)n(CCN6CCCCC6)c5c4)CC3)n2)cc1	-11.1	·	-5.2	i	-8.6	4.9	-5.4	-5.6
CCOC(=O)C1(S(=O)(=O)c2ccc(Cl)cc2)CCN(Cc2ccccc2)CC1	7.7	34.9	8.5	i	-4.9	-2.7	1.9	-2.2
CC(C)(C)OC(=O)NCCC(=O)N/N=C/c1ccc2nccnc2c1	-11.0	5.1	1.1	i	-0.2	3.9	-7.8	-0.4
C[C@H](CO)N1C[C@H](C)[C@@H](CN(C)C(=O)Nc2ccc(C(F)(F)F)cc2)Oc2c(NC(=O)Nc3ccc(C(F)(F)F)cc3)cccc2C1=O	105.7*	2.7	·	·	3.3	-4.8	·	16.4
CNc1cncc(-c2cccnc2)n1	·	13.2	·	·	2.0	4.4	·	-12.9
O=S1(=O)CC(N2CCCC2)CN1Cc1ccccc1 (stereo not drawn)	·	17.7	·	·	2.1	2.8	·	-3.6
Cn1c(=O)[nH]c(=O)c2c1nc(N1CCOCC1)n2CCc1ccccc1	6.8	1.7	-1.1	i	-6.5	-3.0	-9.0	-17.7
COc1ccc2c(c1)-c1c(sn(-c3ccc(OC)c(OC)c3)c1=S)C(C)(C)N2	74.1	·	0.0	i	-9.3	-10.0	-7.6	-4.7

The list itself (from the top)
SMILES	CSC inhib	HIV Env fusion	PABP polyA inh	Rce1 inh	MT1-MMP act inh	MT1-MMP act inh RFP	eIF4H FP inh	UUG fidelity	others
N#CCc1ccc(Oc2ncccn2)cc1	-12.8	-6.0	-1.7	i	-3.9	-0.1	-14.5	-3.6
O=S(=O)(NC1CCCCC1NCc1ccco1)c1ccc(Cl)cc1 (stereo not drawn)	-0.7	·	-7.4	i	-2.1	0.6	4.1	-9.3
Cc1ccc(-c2csc(N3CCN(c4ccc5nc(-c6ccncc6)n(CCN6CCCCC6)c5c4)CC3)n2)cc1	-11.1	·	-5.2	i	-8.6	4.9	-5.4	-5.6
CCOC(=O)C1(S(=O)(=O)c2ccc(Cl)cc2)CCN(Cc2ccccc2)CC1	7.7	34.9	8.5	i	-4.9	-2.7	1.9	-2.2
CC(C)(C)OC(=O)NCCC(=O)N/N=C/c1ccc2nccnc2c1	-11.0	5.1	1.1	i	-0.2	3.9	-7.8	-0.4
C[C@H](CO)N1C[C@H](C)[C@@H](CN(C)C(=O)Nc2ccc(C(F)(F)F)cc2)Oc2c(NC(=O)Nc3ccc(C(F)(F)F)cc3)cccc2C1=O	105.7*	2.7	·	·	3.3	-4.8	·	16.4
CNc1cncc(-c2cccnc2)n1	·	13.2	·	·	2.0	4.4	·	-12.9
O=S1(=O)CC(N2CCCC2)CN1Cc1ccccc1 (stereo not drawn)	·	17.7	·	·	2.1	2.8	·	-3.6
Cn1c(=O)[nH]c(=O)c2c1nc(N1CCOCC1)n2CCc1ccccc1	6.8	1.7	-1.1	i	-6.5	-3.0	-9.0	-17.7
COc1ccc2c(c1)-c1c(sn(-c3ccc(OC)c(OC)c3)c1=S)C(C)(C)N2	74.1	·	0.0	i	-9.3	-10.0	-7.6	-4.7
COc1ccc(C(NC(=O)c2ccccc2F)NC(=O)c2ccccc2F)cc1	-4.7	-79.3	0.3	i	3.3	3.9	7.1	·
CCN1CCN(C(=O)C2CCN(S(=O)(=O)c3ccc4c(c3)NC(=O)C(C)S4)CC2)CC1 (stereo not drawn)	-6.1	-1.6	-1.7	i	-2.4	0.2	6.1	-10.4
COc1ccccc1-n1c(=S)[nH]c2c(sc(=S)n2-c2ccccc2)c1=O	-7.4	9.4	1.7	i	-1.3	-2.2	1.6	·
Cc1cc(Cl)ccc1OCC(=O)NC(=S)Nc1ccccc1N1CCOCC1	-5.4	-21.0	20.2	i	-3.3	-1.9	-12.3	·
COc1ccc(NC(=O)CSc2nnc(Cn3c(=O)sc4ccccc43)n2C)cc1	8.2	-0.5	-1.6	·	4.2	5.8	17.7	-0.1
N#Cc1ccc(OCC(O)CN2CCN(c3ncc(C(F)(F)F)cc3Cl)CC2)cc1 (stereo not drawn)	3.7	46.8	6.4	·	-2.4	-19.8	-14.1	3.6
Cc1cccc(N2CCN(C(=O)c3ccc4c(c3)NC(=O)C(CSCc3ccc(F)cc3)N4)CC2C)c1 (stereo not drawn)	·	·	55.8	i	·	·	84.4	·	eIF4H FP inh retest=37.2;PABP polyA inh retest=33.6
O=C(O)/C(=C\c1ccco1)NC(=O)c1ccco1	1.5	5.9	4.5	i	-2.8	-1.9	3.6	-9.6
Cn1c(/C(C#N)=C2/CCCCCN2)nc2ccccc21	-7.1	·	12.8	i	2.2	1.3	-5.7	-21.2
CCC(C)(C)NC(=O)C(c1ccncc1)N(C(=O)Cn1nnc2ccccc21)c1cc2c(cc1C(C)=O)OCO2 (stereo not drawn)	0.8	-10.1	4.6	i	0.1	4.2	10.7	5.4
Cc1cc(Br)c(S(=O)(=O)NCc2cccnc2)cc1C	5.0	-2.8	4.1	i	0.2	-4.1	-1.5	-2.6
O=C(NCc1cccs1)c1cc(-c2cccc(Cl)c2)on1	-6.7	-95.4	2.2	i	2.3	0.1	-3.6	-9.3
CCCCCCOc1ccc(OC(=O)c2ccncc2)cc1	94.6*	70.2*	-6.0	i	-3.9	-3.2	-2.3	-9.1
Cc1ccc(C(=O)N2CCN(S(=O)(=O)c3ccc(C)cc3)CC2)cc1	2.1	9.1	-3.1	i	-4.1	-5.8	-6.6	·
COCCCNC(=O)NC(=O)c1ccccc1	-12.5	·	-6.1	i	-5.1	-1.1	5.5	·
O=C(O)CCCC(=O)N1N=C(c2ccccc2)CC1c1ccc2nccnc2c1 (stereo not drawn)	1.8	12.8	20.9	i	-0.4	0.7	-6.8	·
C=CCn1c(O)c(N=Nc2ccccc2)c2ccccc21	-1.5	3.4	-4.1	·	-7.1	4.3	8.5	-9.0
CC1=NN(C(N)=S)C(C)(C)C1	-16.0	4.1	-1.6	i	-0.2	6.1	5.4	·
CCOC(=O)C1=C(C)Nc2ncnn2C1c1cc(OC)ccc1OC (stereo not drawn)	·	·	4.9	i	-1.6	4.4	-4.9	-15.0
C=CCN1C(=O)c2ccc(C(=O)N3CCN(S(=O)(=O)c4cccc(Cl)c4)CC3)cc2C1=O	-14.1	-50.5	2.3	i	-5.3	-0.5	-5.7	-2.0
O=C(COC(=O)c1ccc(S(=O)(=O)C(F)F)cc1)NC(=O)NC1CCCCC1	0.6	3.2	·	i	6.4	1.3	·	-3.2
Cc1ccc(OCC(=O)NCCCNC(=O)c2cccnc2)cc1	·	17.3	-0.1	i	3.7	0.1	-3.7	-3.8
CCCc1ccc(C2=Nn3c(nnc3C(C)C)SC2)cc1	-7.2	·	-0.5	i	1.3	-23.3	1.3	-20.6
CCOc1cc(/C=N/O)ccc1OS(=O)(=O)c1ccc(C)cc1	-8.0	19.5	1.1	i	-11.9	-6.7	2.9	-4.6
CS(=O)(=O)c1ccc(-c2nnn(CC(=O)Nc3ccc4c(c3)OCCO4)n2)cc1	4.0	1.5	-9.4	·	1.0	-1.5	1.1	-6.7
COc1cc2sc(-c3ccc(S(C)(=O)=O)cc3)c(C(=O)NCc3ccc(C)o3)c2cc1OC	-9.5	-2.2	·	·	3.6	4.6	·	2.6
CCOc1ccc(CCNC(=O)Cc2ccc(NC(=O)C3=C(C)OCCS3)cc2)cc1	-10.5	-26.1	-5.9	i	2.0	-1.3	-9.3	-17.8
O=C(CNC(=O)c1ccccc1F)N/N=C/c1ccc2c(c1)OCO2	7.9	-15.6	-0.9	i	-1.5	-0.5	-13.6	-30.1
CN(c1ccccc1)c1nc(N)c([N+](=O)[O-])c(N2CCOCC2)n1	5.3	4.7	-1.1	i	1.9	-1.5	-6.9	·
COc1ccc(/C=C2/C(=O)N(c3ccccc3)N=C2C)cc1OC	20.9	-5.1	7.9	i	3.3	5.8	-5.4	-10.9
COc1ccc(C(=O)C2CCCN(Cc3c(C)[nH]c4ccccc34)C2)c(OC)c1 (stereo not drawn)	-2.3	·	23.6	i	·	·	23.5	·
O=C1CSC(c2ccc([N+](=O)[O-])cc2)N1c1ccc(O)cc1 (stereo not drawn)	4.2	8.3	0.3	i	3.2	0.7	3.9	-35.3
COc1cc2c(cc1OC)[C@@H](NC(=O)CCc1ccccc1)[C@H](OCc1ccccc1)C2	·	-26.9	·	·	5.2	-1.2	·	-2.7
O=C(Nc1nnc(-c2ccccc2Cl)o1)c1ccco1	-12.2	-8.3	-2.5	i	6.6	4.9	5.4	-6.1
CCCc1cc(=O)oc2c(CN3CCN(C)CC3)c(O)ccc12	-15.4	-5.3	1.3	?	1.3	1.9	-5.5	-6.6
O=C(Nc1ccc(Cl)cc1)c1csc(Cc2ccccc2)n1	·	-13.2	-10.9	i	4.2	7.0	0.2	·
O=C(c1ccc(NS(=O)(=O)c2cccs2)cc1)N1CCN(c2ccccc2Cl)CC1	-14.1	-22.0	1.3	i	2.3	-2.2	4.8	-1.8
Cn1c(=O)c2cc(NC(=O)Cc3ccccc3F)ccc2n1C/C=C/c1ccccc1	·	-12.8	·	·	3.9	-0.5	·	-12.3
Cc1ccc(/C=C/C(=O)N2CCN(S(=O)(=O)/C=C/c3ccccc3)CC2)o1	4.6	6.3	2.3	i	-0.2	2.8	-0.5	·
O=[N+]([O-])c1ccc2c(c1)nc1n2CCCCC1	-8.1	-15.6	59.6	i	-1.1	0.5	-0.5	·	eIF4H FP inh retest=38.5;PABP polyA inh retest=49.0
O=C(CN1C(=O)NC2(CCCC2)C1=O)OCc1ccc(Cl)cc1Cl	-16.9	6.5	·	i	3.9	4.1	·	3.0
O=C(Nc1ccc(OC(F)(F)F)cc1)c1cccc(-n2cnnn2)c1	·	-17.5	·	·	6.5	-2.9	·	-11.2
O=C(CSCc1ccc(Cl)cc1Cl)Nc1nccs1	7.9	2.1	1.0	·	0.3	0.1	0.6	-14.4
Cc1cccc(NC(=O)CCCNC(=O)c2ccc(Cl)cc2)n1	-7.7	20.0	-11.3	i	0.7	4.6	-15.2	-2.7
O=C(C[C@H]1C[C@H](C(=O)N2CCCCC2)[C@@]2(CCc3ccccc3)c3[nH]c4cc(-c5ccco5)ccc4c3CCN2C1=O)NCc1cccc(C(F)(F)F)c1	·	10.2	·	·	-9.6	-9.1	·	-18.4
Cc1nn(-c2ccccc2Cl)c(Cl)c1/C=C(\C#N)C(N)=O	10.7	25.2	2.5	i	-4.9	-9.6	-0.1	·

Compound activity (PubChem BioAssay)
